# Bioassay records deposited in PubChem by National Center for Advancing Translational Sciences (NCATS).
# PI5P4Ka inh = qHTS for Inhibitors of phosphatidylinositol 5-phosphate 4-kinase (PI5P4K); Phosphatidylinositol 5-phosphate 4-kinase type-2 alpha (Homo sapiens), P48426; PI5P4Kalpha enzyme, ADP-Glo luminescence, 60 min; active compounds read low; max response, %; 330,000 compounds, 1.2% hits; active means max response of -50% or lower; inconclusive means between -30% and -50%; inactive means -30% or higher; further: value at the top dose of about 77 µM; on the % scale 0 is the no-effect control and ±100 the full control effect
# Target sequence (P48426 whole entry, looked up): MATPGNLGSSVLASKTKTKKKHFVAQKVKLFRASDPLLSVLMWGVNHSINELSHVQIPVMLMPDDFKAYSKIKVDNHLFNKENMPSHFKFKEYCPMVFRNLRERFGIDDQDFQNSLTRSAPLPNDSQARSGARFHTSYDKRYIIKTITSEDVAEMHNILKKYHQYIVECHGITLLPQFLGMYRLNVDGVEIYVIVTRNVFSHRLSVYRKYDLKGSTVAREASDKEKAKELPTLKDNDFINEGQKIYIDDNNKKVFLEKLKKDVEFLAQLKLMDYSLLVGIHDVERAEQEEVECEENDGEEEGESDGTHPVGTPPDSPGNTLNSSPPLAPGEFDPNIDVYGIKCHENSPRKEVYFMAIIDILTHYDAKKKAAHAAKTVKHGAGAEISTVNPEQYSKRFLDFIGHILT
#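 Luminescence from ADP-Glo served as readout of PI5P4Kalpha activity in a qHTS format. Reaction: enzyme, substrate, compound, ATP at 5 microM final, 60 min at RT.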
# CCT modulator = High-Throughput Screening for Modulators of Cytosolic Chaperonin Activity. purified chaperonin ATPase assay, HTRF ADP detection, 30 min. activity change, % (test concentration not listed), hits read low. 360,000 compounds, 0.3% hits. AID 651819, 2012; in the data active means activity change below about -30%; further: on the % scale 0 is the no-effect control and ±100 the full control effect
#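 Nucleotide hydrolysis assay: TRiC at 20–40 nM final (set by batch activity) with 10 uM ATP, 30 min at 37 °C, in presence of 76 uM compound. Detection by competitive ADP HTRF, 30 min ambient.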
# EPAC1 antag = qHTS for Antagonist of cAMP-regulated guanine nucleotide exchange factor 3 (EPAC1): primary screen. Potency, µM (doses to about 115 µM), for the others: top-dose activity change, negative = inhibition, usual class: inhibitors. EPAC1 GEF assay, Rap1b-BODIPY-GDP exchange fluorescence. Rap guanine nucleotide exchange factor 3 (Homo sapiens), O95398. 360,000 compounds, 0.14% hits;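 further: potency means the concentration at half of the fitted maximal effect; plate controls were vehicle for no effect and positive control for full effect; nearly all actives have a fitted effect of over 50% in size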
# IL2 activator = qHTS of IL-2 Activators; 360,000 compounds, 0.065% hits; IL-2 activation reporter assay, cell-based qHTS; stimulated with anti-CD3/CD4/CD28 beads; in transgenic mouse T cells; activation, % (series mostly up to about 46 µM); in the data active means activation above about 50%; inconclusive means mostly about 30% to 49%; further: 0% is about no effect
#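 Unstimulated transgenic mouse T cells, 750 per well, received compound and, after 60 minutes, anti-CD3/anti-CD4 bead plus anti-CD28 stimulation. EGFP and DsRed were quantified after 18 hours.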
# PLK1 PBD inh = qHTS for Inhibitors of PLK1-PDB (polo-like kinase 1 - polo-box domain): Primary Screen. Plk1 PBD binding of FITC phosphopeptide, fluorescence polarization. Potency, µM, without a hit: max response, negative = inhibition, usual class: inhibitors. Serine/threonine-protein kinase PLK1 (Homo sapiens), P53350. 360,000 compounds, 2.8% hits. AID 720504, 2013; further: potency means the concentration at half of the fitted maximal effect; series mostly up to about 57 µM; on the % scale 0 is the no-effect control and ±100 the full control effect; nearly all actives have a fitted effect of over 65% in size
# Target sequence (P53350 whole entry, looked up, the tested form may be a part): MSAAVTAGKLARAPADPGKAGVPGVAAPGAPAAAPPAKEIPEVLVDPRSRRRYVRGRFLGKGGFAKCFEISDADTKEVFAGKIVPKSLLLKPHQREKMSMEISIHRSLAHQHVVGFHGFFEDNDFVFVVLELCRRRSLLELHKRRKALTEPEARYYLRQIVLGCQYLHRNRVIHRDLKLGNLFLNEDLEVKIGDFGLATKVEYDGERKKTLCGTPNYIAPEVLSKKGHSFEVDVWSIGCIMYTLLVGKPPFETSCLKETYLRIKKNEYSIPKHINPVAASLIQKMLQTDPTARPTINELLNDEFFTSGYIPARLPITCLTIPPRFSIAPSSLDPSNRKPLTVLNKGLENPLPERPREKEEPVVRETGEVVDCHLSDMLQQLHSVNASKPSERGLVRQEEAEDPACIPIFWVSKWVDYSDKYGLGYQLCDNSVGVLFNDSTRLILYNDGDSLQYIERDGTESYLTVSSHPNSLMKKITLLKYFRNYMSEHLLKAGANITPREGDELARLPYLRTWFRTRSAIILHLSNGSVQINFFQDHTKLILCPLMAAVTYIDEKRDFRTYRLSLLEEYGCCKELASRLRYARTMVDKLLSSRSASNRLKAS
# EPAC1 ag = qHTS for Agonist of cAMP-regulated guanine nucleotide exchange factor 3 (EPAC1): primary screen | EPAC1 agonist qHTS, biochemical assay; response scale: 100% = response to 6.5 mM cAMP | 360,000 compounds, 0.073% hits | AID 720707, 2013 | Potency, µM (doses to about 154 µM), for inactives: top-dose activation, hits mostly activators; further: potency means the concentration at half of the fitted maximal effect; nearly all actives have a fitted effect of over 60% in size
#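 Fluorescent GDP-exchange assay: 100 nM EPAC1 with 250 nM Rap1B preloaded with BODIPY-GDP and 50 uM GDP; compounds tested as concentration series, 5 min at room temperature, then read every 5 min for 30 min (ex 480/em 540 nm); normalized to 6.5 mM cAMP.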
# Active calls of the source: *; ? = inconclusive; . = not tested or not shown. Unless noted, the call rests on the fitted dose curve; in most records, active means well fitted curve in the direction sought with a large enough effect; inconclusive means small, poorly fitted or top-dose-only effect, or another doubt; inactive means no such curve, though single readings can be large; an effect the other way counts as inactive or inconclusive. The list is partial; count on the stated rates, not on these rows.
SMILES	PI5P4Ka inh	CCT modulator	EPAC1 antag	IL2 activator	PLK1 PBD inh	EPAC1 ag
CCOCCCn1c(=S)[nH]c2cc(C(=O)NCCOC)ccc2c1=O	.	-2.4	-4%	-0.5	-2%	-5%
COCCNC(=O)c1onc(CCl)c1C(=O)OC	-3	-1.0	-9%	-1.5	-10%	6%
CC(=O)NS(=O)(=O)c1cccnc1Nc1ccc(Cl)c(Cl)c1	?	0.1	-2%	-1.1	9.5µM*	5%
COc1ccc(CCNC(=O)CSc2nc3[nH]ncc3c(=O)n2-c2ccc(C)c(Cl)c2)cc1OC	1	-0.6	20%	0.3	-1%	-9%
COc1ccc2c(CC(=O)NNC(=O)c3ccc(C)cc3)coc2c1	-6	-0.6	5%	1.2	-1%	5%
COc1ccc(S(=O)(=O)N(CCCN2CCOCC2)Cc2cccc(OC)c2OC)cc1	8	-1.7	14%	0.8	-5%	-2%
Cc1cc(C)c2c(CC(=O)O)coc2c1	-5	-1.7	1%	-0.6	-5%	-3%
CC(C)C[C@H](NC(=O)c1nc[nH]c1C(=O)NC1CCNCC1)C(=O)OCc1ccccc1	6	-3.0	1%	-3.2	-2%	0%
[O-][n+]1c2cc(C(F)(F)F)ccc2c2n1CCN=C2c1ccc(Cl)cc1	-5	0.9	-5%	-0.3	-19%	-13%
CCC(C)NC(=O)c1ccccc1NC(=O)/C(=C/c1ccc(OC)cc1)c1ccccc1 (stereo not given)	5	-0.5	-17%	-2.2	-9%	13%
CCCC(=O)NCCc1cc(OC)c(OC)cc1Br	1	0.2	2%	1.4	-4%	1%
COC(=O)c1sccc1NC(=O)c1c(Cl)cnn1C	3	0.3	-1%	-4.3	-5%	10%
CCN(Cc1nc2ccccc2c(=O)[nH]1)C(=O)c1cc(C2CC2)nn1-c1ccccc1	-4	0.9	2%	2.7	2%	-6%
Cc1cc(C)c2c(CC(=O)NCCc3ccccc3)coc2c1	-1	-2.0	-1%	-3.4	-15%	-5%
CCCCNC(=O)c1onc(CCl)c1C(=O)OC	4	0.4	-8%	-0.5	-6%	-22%
Cc1no[n+]([O-])c1COc1ccc(/C=N/n2nnnc2N)cc1	-25	-2.4	2%	-0.4	-11%	13%
COc1cc(C)c(NC(=S)Nc2cccc(Cl)c2)cc1OC	-12	-2.0	?	-2.6	?	7%
Cc1[nH]c2ccccc2c1C(=O)C(=O)N1CC(C)OC(C)C1 (stereo not given)	-4	-0.8	-3%	-1.6	-3%	-5%
CCc1ccccc1NC(=O)Nc1cc(F)ccc1F	2	-0.3	2%	0.5	-6%	2%
Cc1[nH]c2ccccc2c1C(=O)C(=O)N1c2ccccc2CC1C (stereo not given)	3	-0.6	-2%	0.4	-1%	-4%
COc1ccc(C(=O)Nc2ccc(C3(C#N)CCCC3)cc2)cc1	0	0.9	-8%	8.2	-8%	9%
Cn1c(SCC(=O)NC2CC2)nnc1C(F)(F)F	.	1.6	4%	-0.8	-8%	7%
Cc1cc2nc(CN(C)Cc3c(C(=O)N(C)C)nc4ccc(Cl)cn34)[nH]c2cc1C	-5	-3.7	7%	-4.2	4%	-6%
CC(C)C(C)(C#N)NC(=O)CSc1nnc(C(F)(F)F)n1C (stereo not given)	2	-0.1	-12%	-1.2	-7%	3%
CCN1CCCC1CNS(=O)(=O)c1ccc(Cl)c(C(F)(F)F)c1 (stereo not given)	-5	-3.1	8%	-0.3	0%	1%
Cc1cc(C)c(NC(=O)C2CCCN2C)c(C)c1 (stereo not given)	1	1.0	4%	2.1	2%	-2%
Cc1cccc(NC(=O)c2nc[nH]c2C(=O)N[C@@H](C)C(=O)OC(C)(C)C)c1	7	-0.5	6%	-0.5	-3%	-22%
C=CCn1c(=O)c2ccccc2n2c(Sc3nnnn3-c3ccccc3)nnc12	3	0.3	-9%	-1.5	-3%	2%
CCC(=O)c1ccccc1OCCN1CCN(Cc2ccccc2)CC1	1	-2.7	5%	-0.2	-15%	1%
C/C(CC(=O)NCC(C)C)=N\NC(=O)COc1cc(C)c(Br)cc1Br	0	-0.2	-19%	-2.6	-10%	-13%
COC(=O)c1ccc(Oc2cc(C)nc(-n3nc(C)cc3C)n2)cc1	.	-2.6	-4%	-2.3	-4%	4%
O=C(NC1CC1)c1ccc2c3c(cccc13)CC2	-5	-0.3	-1%	-0.1	-2%	5%
O=C(CC1C(=O)NCCN1Cc1c(F)cccc1Cl)NCCC1=CCCCC1 (stereo not given)	4	-0.7	?	0.0	-14%	0%
COc1ccc(Cl)cc1NC(=O)CN(C)CC(=O)Nc1c(C)n(C)n(-c2ccccc2)c1=O	-1	-0.9	0%	-0.4	-15%	9%
CC(C)C[C@H](NC(=O)c1nc[nH]c1C(=O)N1CCNCC1)C(=O)OC(C)(C)C	5	0.0	11%	1.1	-7%	-4%
COC(=O)c1c(CCl)noc1C(=O)NC(C)C	0	-0.5	-9%	-0.3	2%	-3%
N#Cc1c(NC(=O)CN2CCCCC2)sc2c1CCC2	-25	1.2	5%	-0.7	-9%	-1%
CCCCN(C)C(=O)c1ccc(Nc2nc(C(N)Cc3ccccc3)cs2)nc1 (stereo not given)	0	0.1	-8%	-0.4	-15%	1%
COc1cc(Br)c(CC(=O)O)cc1OC	1	-1.4	-6%	0.4	3%	4%
c1ccc2[nH]c(NC3=NCCC3)nc2c1	-3	-98*	5%	-0.5	-12%	-4%

# Overlap with the part before: 2 entries; new compounds follow.
SMILES	PI5P4Ka inh	CCT modulator	EPAC1 antag	IL2 activator	PLK1 PBD inh	EPAC1 ag
COc1cc(Br)c(CC(=O)O)cc1OC	1	-1.4	-6%	0.4	3%	4%
c1ccc2[nH]c(NC3=NCCC3)nc2c1	-3	-98*	5%	-0.5	-12%	-4%
COc1ccc(-c2nnc(SC)o2)c(OC)c1	3	-1.6	-21%	-2.3	-24%	-8%
CC1CCCN(C2(O)C(=O)Nc3c(C(F)(F)F)cccc32)C1 (stereo not given)	2	1.3	11%	0.4	-3%	-1%
COc1ccc(NC(=O)Nc2c(C)n(C)n(-c3ccccc3)c2=O)cc1	5	-1.1	8%	-1.9	2%	-18%
C[C@H](NC(=O)c1nc[nH]c1C(=O)N[C@H](C)c1ccccc1)C(=O)OC(C)(C)C	-9	0.8	-2%	-0.3	-5%	-11%
CC1=C(C(=O)Nc2ccccn2)C(c2cccnc2)n2nnnc2N1 (stereo not given)	.	1.9	9%	-0.8	0%	4%
Cc1cc(C)cc(OC(C)C(=O)Nc2ccc3c(c2)n(C)c(=O)n3C)c1 (stereo not given)	-2	0.4	-4%	0.1	-18%	3%
CN(Cc1ccco1)C(=O)Cn1nc(-c2ccc(Cl)cc2)ccc1=O	-3	1.7	?	0.4	-8%	15%
CC(C)CCNC(=O)[C@H](Cc1ccccc1)N1Cc2ccccc2C1=O	-2	0.1	7%	-1.5	5%	-1%
CC1=C(C)CC(C(=O)NC2CCN(C(C)C)CC2)C(C(=O)O)C1 (stereo not given)	-1	-5.5	-1%	0.9	-16%	1%
COc1ccc(-n2c(N)cc(=O)nc2SCC(=O)N2CCN(c3ccccc3)CC2)cc1	1	-2.6	-1%	-3.6	-4%	4%
Cc1cccc2cc(CN(Cc3ccco3)C(=O)c3ccncc3)c(=O)[nH]c12	5	1.4	9%	-0.2	-5%	-1%
O=C(c1cc(COc2ccc(F)c(F)c2)on1)N1CCSCC1	7	3.0	4%	0.8	3%	0%
CC(C)NC(=O)C1(S(=O)(=O)c2ccccc2)CC=CC1	2	-1.3	-8%	-2.8	-8%	6%
Cc1ccc(NCc2nnc(SCC(=O)NCc3ccco3)n2CC2CCCO2)c(C)c1 (stereo not given)	0	0.7	-14%	1.1	-6%	8%
COc1ccc(C(=O)Nc2ccc(C3(C#N)CCCC3)cc2)cc1OC	-6	-0.6	9%	0.2	-1%	17%
CCN(CC)C(=O)c1[nH]cnc1C(=O)N[C@@H](C)C(=O)OC(C)(C)C	3	-1.0	7%	1.0	-3%	9%
O=C(CSc1nc2ccccc2o1)Nc1nccs1	-6	-1.1	5%	-2.9	7%	-3%
C[C@H](NC(=O)c1[nH]cnc1C(=O)Nc1ccc(CNC(=O)OC(C)(C)C)cc1)C(=O)OC(C)(C)C	0	0.4	-24%	-3.8	21µM*	-25%
CC(=O)CSc1nnc(C(F)(F)F)n1C	7	3.5	-15%	0.0	-5%	-3%
O=C(c1ccccc1)N1CCN(c2cc(-c3ccccc3)nc3cc(-c4cccc(Cl)c4)nn23)CC1	7	-1.1	14%	-2.2	-10%	13%

# Structures listed so far marked active in CCT modulator.
mol	PI5P4Ka inh	CCT modulator	EPAC1 antag	IL2 activator	PLK1 PBD inh
c1ccc2[nH]c(NC3=NCCC3)nc2c1	-3	-98*	5%	-0.5	-12%

# New compounds follow
SMILES	PI5P4Ka inh	CCT modulator	EPAC1 antag	IL2 activator	PLK1 PBD inh	EPAC1 ag
Nc1cc(=O)nc(SCC(=O)NC2CCCCC2)n1-c1ccccc1	2	2.0	11%	1.2	2%	-6%
CC1=C(C(=O)Nc2cc(C)ccn2)C(c2ccc(C)cc2)C2=C(CCCC2=O)N1 (stereo not given)	-4	-4.0	9%	-1.7	2%	8%
O=[N+]([O-])c1ccccc1S(=O)(=O)Oc1ccc(/C=N/n2cnnc2)cc1	2	-0.9	-1%	-3.5	5%	-8%
CC(=O)N1CCN(c2cc(-c3ccccc3)nc3cc(-c4cccc(Cl)c4)nn23)CC1	0	1.4	9%	1.2	8%	-5%

# Some of the entries above in a different format.
CC(=O)N1CCN(c2cc(-c3ccccc3)nc3cc(-c4cccc(Cl)c4)nn23)CC1
  PI5P4Ka inh: 0 | CCT modulator: 1.4 | EPAC1 antag: 9% | IL2 activator: 1.2 | PLK1 PBD inh: 8% | EPAC1 ag: -5%

CC1=C(C(=O)Nc2cc(C)ccn2)C(c2ccc(C)cc2)C2=C(CCCC2=O)N1 (stereo not given)
  PI5P4Ka inh: -4 | CCT modulator: -4.0 | EPAC1 antag: 9% | IL2 activator: -1.7 | PLK1 PBD inh: 2% | EPAC1 ag: 8%

Nc1cc(=O)nc(SCC(=O)NC2CCCCC2)n1-c1ccccc1
  PI5P4Ka inh: 2 | CCT modulator: 2.0 | EPAC1 antag: 11% | IL2 activator: 1.2 | PLK1 PBD inh: 2% | EPAC1 ag: -6%

O=[N+]([O-])c1ccccc1S(=O)(=O)Oc1ccc(/C=N/n2cnnc2)cc1
  PI5P4Ka inh: 2 | CCT modulator: -0.9 | EPAC1 antag: -1% | IL2 activator: -3.5 | PLK1 PBD inh: 5% | EPAC1 ag: -8%
